Beta2AR agonist: beta2AR agonists driving receptor internalization, primary screen, cell-based, FAP fluorogen, flow cytometry. Beta-2 adrenergic receptor (Homo sapiens), P07550. Am2.2-beta2AR cells; reference of the scale not given here. response, % (test concentration not listed). 340,000 compounds, 0.43% hits. AID 504454, 2011;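 active = response above a set limit, near 3 SD of response in nonfluorescent compounds, cut at about 42% in these data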;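 also: stock transfer was 100 nL into about 11 µL; a reference agonist was the positive control; negative values mostly stem from fluorescent compounds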
Target sequence (P07550 whole entry, looked up): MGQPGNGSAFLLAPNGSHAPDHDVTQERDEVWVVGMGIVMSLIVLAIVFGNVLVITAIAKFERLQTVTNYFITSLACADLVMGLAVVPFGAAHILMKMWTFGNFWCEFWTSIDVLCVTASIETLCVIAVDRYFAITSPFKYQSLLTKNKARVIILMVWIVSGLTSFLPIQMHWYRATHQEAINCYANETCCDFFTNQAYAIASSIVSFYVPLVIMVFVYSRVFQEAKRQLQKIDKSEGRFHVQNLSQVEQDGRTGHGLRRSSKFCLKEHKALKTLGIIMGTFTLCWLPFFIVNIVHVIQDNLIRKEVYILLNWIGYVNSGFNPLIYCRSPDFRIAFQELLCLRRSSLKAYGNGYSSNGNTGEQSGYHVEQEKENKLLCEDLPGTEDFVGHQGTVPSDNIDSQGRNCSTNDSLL
HNF4A DNA FP: change in binding of human HNF4A to DNA, primary screen, biochemical, fluorescence polarization, FITC-DNA; 1 h; AID 1224865, 2016; 360,000 compounds, 0.3% hits; Hepatocyte nuclear factor 4-alpha (Homo sapiens), P41235; activity change, % at 10 µM; in the data active = activity change above about 30%, passing the limit was not always enough;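 also: controls were the assay level and a saturating level of protein; the project sought stronger binding though the title names inhibitors; some compounds called inactive have numbers as strong as hits; positive values seem to mean higher polarization but the record does not say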
Target sequence (P41235 whole entry, looked up): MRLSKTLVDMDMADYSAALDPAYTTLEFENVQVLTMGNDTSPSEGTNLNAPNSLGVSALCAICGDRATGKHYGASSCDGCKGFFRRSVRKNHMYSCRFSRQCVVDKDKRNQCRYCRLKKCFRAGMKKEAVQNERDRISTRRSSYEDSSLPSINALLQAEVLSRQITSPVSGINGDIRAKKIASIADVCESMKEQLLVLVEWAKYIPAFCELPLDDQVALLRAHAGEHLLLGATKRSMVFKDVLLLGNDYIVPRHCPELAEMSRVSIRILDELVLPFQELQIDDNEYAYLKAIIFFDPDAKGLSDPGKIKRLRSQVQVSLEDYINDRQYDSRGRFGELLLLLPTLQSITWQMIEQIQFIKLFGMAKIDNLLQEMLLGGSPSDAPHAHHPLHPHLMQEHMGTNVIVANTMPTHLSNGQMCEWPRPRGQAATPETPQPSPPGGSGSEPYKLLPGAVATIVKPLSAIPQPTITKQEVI
An asterisk follows results filed as active; i = inactive. Only part of the results is shown, so the mix of outcomes need not match the whole.

SMILES | Beta2AR agonist | HNF4A DNA FP
COc1ccc(OC)c(NC(=O)CSc2nc3[nH]c(=O)[nH]c(=O)c3s2)c1 | 0 | 0.1
CC(=O)NC1CC2CCCC(C1)N2C(=O)Nc1cccc(C(C)=O)c1 (stereo unspecified) | 6 | 0.5
Cc1ccccc1NC(=O)COC(=O)c1ccc2c(c1)C(=O)N(CCCN1CCOCC1)C2=O | 0 | -2.9
COc1ccc(C)cc1NC(=O)CN1C(=O)C(=O)N(C2CCCC2)C1=O | -1 | -3.9
C=C(C1=CCN(S(=O)(=O)C(C)(C)C)[C@@H]1CCO)c1ccccc1 | 1 | 3.2
CCN(C(=O)CSc1nc2ccccc2n1CC(C)C)c1c(N)n(Cc2ccccc2)c(=O)[nH]c1=O | -10 | -0.5
CC[C@H]1C=C[C@@H](C(C(=O)OC)C(=O)OC)CN1C(C)=O | -3 | 0.6
CNC(=S)N1C2CCCC1CC(NC(=O)c1ccc(C)cc1)C2 (stereo unspecified) | 1 | -0.9
CC(C)(C)NCC(=Cc1ccccc1)C(=O)c1ccccc1 | 10 | 3.0
COCCNCc1cc(C)n(-c2cc(S(=O)(=O)N3CCOCC3)ccc2N2CCCC2)c1C | 10 | -3.7
COc1ccc(OC)cc1 | 13 | -1.4
C=CCn1c(=O)[nH]c(=O)c2c(N)c(C(=O)c3ccc(OC)cc3)sc21 | 3 | -1.8
CNC1(C)[C@H]2CC[C@H](C2)C1(C)C (stereo partly specified) | 0 | 4.1
CN(c1ccccc1)S(=O)(=O)c1cc(C(=O)Nc2ccccc2N2CCOCC2)ccc1Cl | 6 | 1.8
Cc1ccccc1NC(=O)c1cc(-c2ccco2)nc2ccccc12 | 9 | -9.9
CCOC(=O)c1c(SCCN2CCCCC2)n(-c2ccccc2)c(=S)n(-c2ccccc2)c1=O | 30 | 1.1
O=C(O)c1cccc(N2C(=O)/C(=C/c3ccc(SCc4ccc(Cl)cc4)o3)SC2=S)c1 | -32 | 99
Cc1ccc(C)c(S(=O)(=O)N(C)c2ccc(OC(=O)C3CCN(C(=O)Nc4ccccc4)CC3)cc2)c1 | -1 | -4.2
CN(CC(=O)Nc1ccccc1Br)C(=O)c1ccccc1Sc1ccccc1C#N | 6 | -2.7
O=c1c2ccccc2nc(/C=C/c2ccc3c(c2)OCO3)n1CCCO | 7 | 1.6
CC(OC(=O)c1cccc(S(=O)(=O)N(C)C)c1)C(=O)NCC(=O)Nc1ccc(F)c(F)c1F (stereo unspecified) | -5 | -2.3
O=C(CN1C(=O)NC(Cc2c[nH]c3ccccc23)C1=O)Nc1ccccc1C(F)(F)F (stereo unspecified) | 9 | -2.1
CC(NS(=O)(=O)c1cccc(C(=O)N(C)Cc2ccc(N3CCOCC3)cc2)c1)c1ccccc1 (stereo unspecified) | 10 | 1.7
COc1ccc(C(CNC(=O)c2ccc(S(=O)(=O)Nc3ccccc3OC)cc2)N2CCCC2)cc1 (stereo unspecified) | 10 | 4.9
CCN(C(=O)COC(=O)/C(C#N)=C/c1cc(C)n(CCOC)c1C)c1c(N)n(Cc2ccccc2)c(=O)[nH]c1=O | -1 | 8.1
CC(=O)OCC(=O)C1(O)CCC2C3CCC4=CC(=O)CCC4(C)C3C(O)CC21C (stereo unspecified) | -8 | 1.7
O=C(c1noc2c1CCCCC2)N1CCN(C(c2ccccc2)c2ccccc2)CC1 | 10 | 4.0
CCN(C(=O)COC(=O)C1CCC(C(C)(C)C)CC1)c1c(N)n(Cc2ccccc2)c(=O)[nH]c1=O (stereo unspecified) | -13 | -0.8
CC1CCCCC1NC(=O)NC(=O)COC(=O)C1=NN(c2ccccc2)C(=O)CC1 (stereo unspecified) | 3 | -5.1
O=c1c(O)c(-c2ccccc2)oc2cc(O)cc(O)c12 | -3 | -1.6
O=C(O)c1ccccc1 | 1 | 0.2
COc1ccc(C(=O)/C=C/c2ccc(O)cc2)c2c1CC(O)C(C)(C)O2 (stereo unspecified) | -32 | -1.3
COc1c(O[C@@H]2O[C@H](CO)[C@@H](O)[C@H](O)[C@H]2O)cc2c(c1OC)-c1ccc(SC)c(=O)cc1C(NC(C)=O)CC2 (stereo partly specified) | -2 | -1.7
COCCCN(C(=O)Cc1ccc(S(=O)(=O)N2CCOCC2)s1)c1c(N)n(Cc2ccccc2)c(=O)[nH]c1=O | -5 | -0.3
COc1ccc(C(=O)CSc2nc(=O)n(Cc3cccnc3)c3c2CCC3)cc1 | -11 | -0.8
CN1CCC(N(C)S(=O)(=O)c2ccc(NC(=O)Cc3ccc(F)cc3)cc2)CC1 | -1 | 1.7

Fetched by compound from the entries so far:
SMILES | Beta2AR agonist | HNF4A DNA FP
CN1CCC(N(C)S(=O)(=O)c2ccc(NC(=O)Cc3ccc(F)cc3)cc2)CC1 | -1 | 1.7
COc1ccc(C(=O)/C=C/c2ccc(O)cc2)c2c1CC(O)C(C)(C)O2 (stereo unspecified) | -32 | -1.3
CC(=O)OCC(=O)C1(O)CCC2C3CCC4=CC(=O)CCC4(C)C3C(O)CC21C (stereo unspecified) | -8 | 1.7

Continuation:
SMILES | Beta2AR agonist | HNF4A DNA FP
COc1cc(Cl)c(C)cc1NC(=O)c1ccccc1NC(=O)CN1CCN(c2ccccn2)CC1 | 14 | 2.5
O=C(CCCOc1ccc(Cl)cc1Cl)Nc1cc(S(=O)(=O)N2CCOCC2)ccc1N1CCOCC1 | 0 | -2.1
CCN(CC(=O)Nc1c(F)cccc1F)C(=O)C1COc2ccccc2O1 (stereo unspecified) | -2 | -2.1
N#CCCN(Cc1cccnc1)C(=S)Nc1ccccc1Cl | 5 | -0.2
COCCCNC(=O)C[C@H]1C[C@H](C(=O)N2CCOCC2)[C@@]2(C)c3[nH]c4cc(CCC(=O)N(C)C)ccc4c3CCN2C1=O | 0 | 1.0
COCCN(CC(=O)Nc1ccccc1C(F)(F)F)C(=O)/C=C/c1cc(Cl)c2c(c1)OCCO2 | -9 | -4.4
Cc1nccn1-c1c2c(c(C#N)c3nc4ccccc4n13)CCCC2 | 1 | 0.6
COc1ccc(CNS(=O)(=O)CCNCc2ccccc2OC)cc1 | -2 | 1.7
CCOc1ccccc1OCCCC(=O)Nc1ccc(S(=O)(=O)Nc2cc(C)nc(C)n2)cc1 | -3 | -1.7
CCOC(=O)C1=C(COC(=O)c2cc(S(=O)(=O)N3CCOCC3)ccc2F)NC(=O)NC1C (stereo unspecified) | 20 | -1.1
COc1cc(OC)cc(C(=O)NNC(=O)C(CCC(N)=O)NS(=O)(=O)c2ccc(Cl)cc2)c1 (stereo unspecified) | 4 | 2.2
CCN1C[C@@H]2[C@@H]3C(=O)N(C)C(=O)[C@@H]3[C@](Cc3ccccc3)(C1=O)N2C(=O)c1ccccc1 | -3 | 0.1
CCCCn1c(N)c(N(CCC(C)C)C(=O)COC(=O)Cc2ccc(Cl)cc2)c(=O)[nH]c1=O | -1 | 2.3
COc1ccc(CC(=O)OCC(=O)N2CCc3ccccc32)cc1OC | -4 | 0.8
CC(C)N(C(=O)[C@H]1C[C@H](CC(=O)NCCN2CCOCC2)C(=O)N2CCc3c([nH]c4cc(-c5ccco5)ccc34)[C@]12C)C(C)C | 5 | 3.0
COc1cc(COc2ccc(S(=O)(=O)N3CCOCC3)cc2[N+](=O)[O-])ccc1OC(F)F | 2 | 1.8
CC(=O)c1cccc(OCC(=O)N(CCC2=CCCCC2)c2c(N)n(Cc3ccccc3)c(=O)[nH]c2=O)c1 | -7 | 1.8
CNC(=O)C1CC(=O)N(c2ccc(OCC(=O)Nc3ccc(F)cc3)cc2)C1 (stereo unspecified) | -4 | -1.3
CN(CCc1ccccc1)C(=O)c1ccc(NC(=O)Cc2ccc(NC(=O)C3CCCN(C(=O)c4ccccc4)C3)cc2)cc1 (stereo unspecified) | 2 | 0.0
COc1cccc(N2C(=O)CC(N3CCN(S(=O)(=O)c4ccccc4[N+](=O)[O-])CC3)C2=O)c1 (stereo unspecified) | -6 | -3.9
CCN(C(=O)COC(=O)Cn1c(=O)oc2ccccc21)c1c(N)n(Cc2ccccc2)c(=O)[nH]c1=O | -7 | 2.8
c1ccc(-c2cnn3c(-c4ccccc4)c(-c4ccccc4)nc3n2)cc1 | i | -95
Cc1noc(NS(=O)(=O)c2ccc(NC(=O)c3cc(S(=O)(=O)N(C)c4ccccc4)ccc3Cl)cc2)c1C | 4 | -2.3
CC(OC(=O)C1=Cc2ccccc2OC1)C(=O)NCC1CCCO1 (stereo unspecified) | 2 | -3.5
CCN(C(=O)COC(=O)CCCc1nc2ccccc2s1)c1c(N)n(Cc2ccccc2)c(=O)[nH]c1=O | -1 | 1.0
COc1ccccc1CNS(=O)(=O)CCNC1CCCCC1 | -5 | -3.1
COc1ccc(CNC(=O)C[C@H]2C[C@H](C(=O)N3CCCCC3)[C@@]3(CCc4ccccc4)c4[nH]c5cc(-c6ccco6)ccc5c4CCN3C2=O)cc1OC | 0 | 11
CC(=O)Nc1ccc(S(=O)(=O)NCC2CC3CCC2C3)cc1 (stereo unspecified) | -25 | -3.5
CCCCn1c(N)c(N(CC(C)C)C(=O)Cc2ccc(S(=O)(=O)N3CCOCC3)s2)c(=O)[nH]c1=O | 5 | 20
O=C1C[C@@H]2c3c(cccc3CN1Cc1ccc(Cl)cc1)C[C@@H](O)[C@H]2O | -3 | 0.0
CC(O)(P(=O)(O)O)P(=O)(O)O | -1 | -2.3
CN(c1ccccc1)S(=O)(=O)c1ccc(C(=O)NNC(=O)c2ccccc2)cc1 | 1 | 5.8
COc1cc(/C=C/c2cc(C(F)(F)F)[nH]c(=O)n2)cc(OC)c1OC | 3 | -1.2
CC[C@]12C(=O)N(C)C[C@H]([C@@H]3C(=O)N(C)C(=O)[C@@H]31)N2C(=O)c1ccccc1 | -4 | -1.1
O=c1cc(-c2ccc(O)cc2)oc2c(-c3c(O)cc(O)c4c(=O)cc(-c5ccc(O)cc5)oc34)c(O)cc(O)c12 | 9 | -6.4
CCN(c1ccccc1)S(=O)(=O)c1cc(C(=O)OCC(=O)c2c(N)n(C)c(=O)n(C)c2=O)ccc1C | 8 | -15
CCN(C(=O)CSc1nnc(C(C)N(C)C)n1-c1ccc(F)cc1)C1CCS(=O)(=O)C1 (stereo unspecified) | 2 | -1.5
Cc1ccccc1OCCOC(=O)c1ccc(S(=O)(=O)N2CCCC2)cc1 | 5 | 3.8
CCN1C[C@@H]2[C@@H]3C(=O)N(Cc4ccccc4)C(=O)[C@@H]3[C@](C)(C1=O)N2C(=O)c1ccc(C(C)(C)C)cc1 | -2 | 0.3
O=C(Cc1ccc(NC(=O)C2CCN(C(=O)c3ccccc3)CC2)cc1)Nc1cccc(C(=O)N2CCCC2)c1 | -16 | 0.8
Clc1cccc(-c2ccc(-c3nc4ccccn4c3NCc3ccccc3)cc2)c1 | -6 | 2.3
COc1ccc(CCNC(=O)c2cc3c(=O)n4ccccc4nc3n(CC3CCCO3)c2=N)cc1 (stereo unspecified) | -9 | 3.3
CCOc1ccc(C(=O)Cc2ccccc2)cc1 | -10 | -4.2
COc1cc(/C=C/C(=O)Nc2ccc(S(=O)(=O)Nc3onc(C)c3C)cc2)cc(OC)c1OC | 3 | -0.8
COc1ccc(F)cc1CN1CCN(C(=O)c2ccc(S(=O)(=O)N3CCCCCC3)cc2)CC1 | 5 | 0.6
CN(Cc1ccccc1)C(=O)c1ccc(NC(=O)Cc2ccc(NC(=O)C3CCN(C(=O)c4ccccc4)CC3)cc2)cc1 | -3 | -0.3
Cc1ccc(S(=O)(=O)N2CCN(C(=O)COC(=O)c3ccccc3OC(F)F)CC2)c(C)c1 | 4 | 1.7
Cc1ccc([C@H]2C(C(=O)O)=C[C@@H](CC3CCCC3)N2S(=O)(=O)c2ccc(C)cc2)cc1 | 6 | 4.2
C#CCOCCOCCOCCNc1nc(N2CCN(C(=O)[C@H]([C@@H](C)CC)n3cc(CCCN=C(N)N)nn3)CC2)nc(N2CCN(C(=O)[C@H]([C@@H](C)CC)n3cc(CCC(=O)O)nn3)CC2)n1 | 0 | 2.3
Cc1nc(-c2ccc(F)cc2)c(CC(=O)N(C)CC(=O)Nc2ccc(Cl)c(C(F)(F)F)c2)s1 | 16 | -1.0
CCOC(=O)c1ccc(NC(=O)C2CC(=O)N(c3ccc4c(c3)OCCO4)C2)cc1 (stereo unspecified) | 1 | -2.4
CC(C)CC(CO)NS(=O)(=O)c1cccc(Cl)c1F (stereo unspecified) | 0 | 2.1
O=C(NCC(c1cccs1)N1CCOCC1)c1cccc(S(=O)(=O)Nc2ccc(F)cc2)c1 (stereo unspecified) | -9 | -0.5
CCCCCN(C(=O)CCC(=O)OC(C)C(=O)c1ccc(CC)cc1)c1c(N)n(CCCC)c(=O)[nH]c1=O (stereo unspecified) | 1 | -2.0
COc1cccc(NC(=O)CN(C)C(=O)C2CC(=O)N(CCc3ccc(OC)c(OC)c3)C2)c1 (stereo unspecified) | 19 | -7.5
Cc1cc(C)c(C)c(S(=O)(=O)N2CCC(C(=O)N(C)Cc3nc4ccccc4c(=O)[nH]3)CC2)c1C | 10 | 2.6
CCN(CC)c1ccc(S(=O)(=O)N2CCOCC2)cc1NC(=O)COC(=O)/C=C/c1ccc(O)c(OC)c1 | 16 | 3.4

5 entries out of the list, sorted by molar mass, descending:
SMILES | Beta2AR agonist | HNF4A DNA FP
C#CCOCCOCCOCCNc1nc(N2CCN(C(=O)[C@H]([C@@H](C)CC)n3cc(CCCN=C(N)N)nn3)CC2)nc(N2CCN(C(=O)[C@H]([C@@H](C)CC)n3cc(CCC(=O)O)nn3)CC2)n1 | 0 | 2.3
CCN(CC)c1ccc(S(=O)(=O)N2CCOCC2)cc1NC(=O)COC(=O)/C=C/c1ccc(O)c(OC)c1 | 16 | 3.4
Cc1nc(-c2ccc(F)cc2)c(CC(=O)N(C)CC(=O)Nc2ccc(Cl)c(C(F)(F)F)c2)s1 | 16 | -1.0
O=C(NCC(c1cccs1)N1CCOCC1)c1cccc(S(=O)(=O)Nc2ccc(F)cc2)c1 (stereo unspecified) | -9 | -0.5
CC(C)CC(CO)NS(=O)(=O)c1cccc(Cl)c1F (stereo unspecified) | 0 | 2.1

Screening data as filed in PubChem.
